# Assay outcomes (PubChem)
# RanGTP-Imp inh: disruptors of Ran-importin-beta complex formation – biochemical, FRET, CFP-Ran, YFP-importin-beta, homogeneous, primary screen | cell-free CFP-Ran/YFP-importin-beta FRET ratio | inhibition, % (concentration not given with the values) | actives 1.1% (n = 300,000) | AID 2216;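 active = most replicates above 15%; inconclusive = exactly half above 15%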;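 note: 0% = DMSO wells and 100% = Ran loaded with GDP instead of GTP; wells of about 40 µL received 100 nL stock; the first replicate is given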
# LANA-H2A inh: blocks KSHV LANA binding to histone H2A/H2B; actives 0.6% (n = 320,000); Q9QR71; inhibition, % (no concentration beside the values); cell-free LANA-H2A/H2B peptide, fluorescence polarization; AID 2629; in the data active = inhibition mostly above about 10%, no sharp cut-off; inactive = mostly below about 6.7%;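 note: stock transfer was 7.5 nL into about 10 µL; 0% = median of vehicle wells and 100% = median of positive control wells; one replicate is shown; the record names a cut of 25% in any replicate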
# Target sequence (Q9QR71 whole entry, looked up): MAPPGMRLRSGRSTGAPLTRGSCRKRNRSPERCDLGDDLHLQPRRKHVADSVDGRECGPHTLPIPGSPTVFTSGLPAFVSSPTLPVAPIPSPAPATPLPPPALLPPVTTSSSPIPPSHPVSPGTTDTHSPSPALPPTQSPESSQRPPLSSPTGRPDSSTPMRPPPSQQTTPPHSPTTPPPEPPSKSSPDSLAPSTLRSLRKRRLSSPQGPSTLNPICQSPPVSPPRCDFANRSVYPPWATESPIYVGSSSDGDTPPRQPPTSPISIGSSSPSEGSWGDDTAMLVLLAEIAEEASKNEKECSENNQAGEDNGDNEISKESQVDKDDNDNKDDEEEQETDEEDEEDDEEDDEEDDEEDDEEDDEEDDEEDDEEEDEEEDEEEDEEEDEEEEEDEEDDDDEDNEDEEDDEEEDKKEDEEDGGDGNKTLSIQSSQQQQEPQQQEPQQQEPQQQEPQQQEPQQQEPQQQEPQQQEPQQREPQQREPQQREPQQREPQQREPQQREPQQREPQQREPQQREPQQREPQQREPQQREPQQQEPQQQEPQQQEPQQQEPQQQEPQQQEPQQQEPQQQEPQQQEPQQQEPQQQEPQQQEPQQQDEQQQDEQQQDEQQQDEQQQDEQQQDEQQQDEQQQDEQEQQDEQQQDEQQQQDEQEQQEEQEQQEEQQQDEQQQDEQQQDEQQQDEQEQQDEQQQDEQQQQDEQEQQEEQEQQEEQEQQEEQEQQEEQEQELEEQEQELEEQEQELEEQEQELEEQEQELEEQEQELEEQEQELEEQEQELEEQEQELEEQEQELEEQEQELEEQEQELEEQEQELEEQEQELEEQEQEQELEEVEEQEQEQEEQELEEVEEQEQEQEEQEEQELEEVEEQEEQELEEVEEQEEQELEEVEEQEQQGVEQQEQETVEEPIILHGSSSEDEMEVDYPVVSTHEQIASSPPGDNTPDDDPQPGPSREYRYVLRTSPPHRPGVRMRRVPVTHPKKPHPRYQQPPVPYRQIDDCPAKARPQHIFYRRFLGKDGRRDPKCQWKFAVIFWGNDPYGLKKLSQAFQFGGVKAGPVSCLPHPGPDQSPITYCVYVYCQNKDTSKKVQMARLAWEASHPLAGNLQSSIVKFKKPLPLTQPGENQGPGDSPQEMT
# Beta apoptosis: beta cell apoptosis inhibition; INS-1E cytokine-induced death, ATP luminescence, 48 h; percent of positive-control rescue, neutral wells zero; protection from apoptosis, % (test concentration not listed); actives 0.8% (n = 300,000);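 active = all replicates at 75% or more, or half of them and the mean; inconclusive = half reach 75% but not the mean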;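 note: 0% = cytokine-treated negative control wells and 100% = positive control rescue; higher means more ATP so stronger rescue from cytokine killing; wells of about 40 µL received 100 nL stock; the first replicate is given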
# AF4-AF9 inh: inhibitors of human MLL-AF4/AF9 interaction; P42568; inhibition, % at 10 µM; AID 651704; AlphaScreen, biotin-AF4 peptide binding to FLAG-AF9; actives 0.47% (n = 350,000);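 active = every replicate reaching a set inhibition limit, whatever the replicate mean, cut at about 25% in these data; inconclusive = mean inhibition reaches that limit but some replicates miss it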;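 note: 0% = plate neutral control median and 100% = total signal loss; the record names both 10 and 1 µM as test concentration; the first replicate is given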
# Calb FLC: affects C. albicans growth with fluconazole. C. albicans CaCi-2 (fluconazole-resistant clinical isolate) + fluconazole, Alamar Blue growth, 48 h. growth inhibition, % (test concentration not listed). actives 0.57% (n = 300,000). AID 1979;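 active = most replicates above 75%; inconclusive = exactly half above 75%; inactive = most below 75%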;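 note: all wells also contain fluconazole at 8 µg/ml as a sub-toxic cotreatment; 0% = median of DMSO wells and 100% = median of geldanamycin control wells; wells of about 8 µL received 7.5 nL stock; the first replicate is given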
# Vif TR-FRET: inhibitors of Vif binding to APOBEC3G peptide, primary screen, biochemical, TR-FRET, GST-Vif 1-94, biotin-A3G peptide, dose response retest (AID 1117319); actives 0.57% (n = 260,000); inhibition, %, or IC50 in µM where a hit was titrated; TR-FRET GST-Vif / biotin-A3G peptide binding; higher % means a stronger effect; test concentration not given here; strong numbers were not always called active;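 active = above the screen mean plus three standard deviations and confirmed in dose response; inconclusive = results disagree or hit not tested in dose response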;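 note: Vif residues 1-94 fused to GST binding biotinylated APOBEC3G peptide 110-148; 0% = full assay without inhibitor and 100% = GST in place of GST-Vif; retest series ran down from 100 µM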
# T cruzi repl: blocks replication of Trypanosoma cruzi; T. cruzi beta-gal in NIH3T3, luminescence, 90 h; inhibition, % (no concentration beside the values); actives 1.4% (n = 300,000); AID 1885;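 active = mean inhibition across valid replicates above about 55%, limit read from the data; inconclusive = mean below that limit but half or more replicates reach it; inactive = mean below it, under half of replicates reach it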;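 note: signal also drops with host cell toxicity which is not excluded here; 0% = plate median of DMSO wells and 100% = zero luminescence signal; higher percent means less beta-gal luminescence so fewer parasites; stock transfer was 50 nL into about 50 µL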
# A1 inh: inhibitors of the anti-apoptotic protein A1, read as caspase activation; MEF A1-2A-BIM cells, Caspase-Glo 3/7 luminescence, 3 h; percent of clofoctol response, vehicle zero; caspase activation, % (concentration not given with the values); actives 0.066% (n = 330,000); AID 2462;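 active = over half of replicate activation scores above 10%, or exactly half above 10 with the replicate mean above 10; inconclusive = replicate mean below 10 yet half the replicates above 10; inactive = over half of replicates below 10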;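 note: wells of about 30 µL received 50 nL stock; many hits fall short of the cut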
# Active calls of the source: *; ? = inconclusive; . = no result given.
SMILES,RanGTP-Imp inh,LANA-H2A inh,Beta apoptosis,AF4-AF9 inh,Calb FLC,Vif TR-FRET,T cruzi repl,A1 inh
C=CCn1c(SCCOc2ccc(OC)cc2)nnc1C(C)NC(=O)Cc1ccc(OC)cc1 (stereo not drawn),6.1,0.6,2,.,1,3%,11,0.9
Cc1cc(C)nc(SCc2nnc(SCC(N)=O)o2)n1,0.0,3.3,-4,-0.5,8,7%,-2,0.1
Cc1ccc(CN2C3=NC(=O)CN3c3ccccc32)cc1,-2.1,3.2,5,.,-5,-8%,-14,0.8
CCOC(=O)C1C(c2ccc(O)c(OC)c2)NC(=O)NC1(O)C(F)(F)F (stereo not drawn),2.0,-1.2,-8,0.9,-3,.,-6,0.2
Cc1cc(C)cc(N(CC(=O)O)S(=O)(=O)c2c(C)noc2C)c1,2.8,2.0,1,2.1,8,2%,-10,0.4
Cc1ccc(S(=O)(=O)N2CCOCC2)cc1C(=O)OCC(=O)NC1CCCC1,.,2.6,-1,1.7,.,.,.,1.3
O=C(Nc1ccccc1)Nc1cccc2nsnc12,-9.1,4.1,8,-5.1,0,-5%,1,-8.6
O=C(Nc1ccc2c(c1)OCO2)C(c1ccccc1)N1CCC2(CC1)OCCO2 (stereo not drawn),7.8,2.3,8,.,10,-2%,4,-0.1
CCOC(=O)c1c(NC(=S)Nc2ccc(OC)cc2)sc2c1CCC2,1.6,5.2,2,-4.3,?,0%,-11,0.8
CC(C)(C)Nc1nc(Cl)nc(N(C#N)CN2C(=O)c3ccccc3S2(=O)=O)n1,5.7,1.3,-8,-6.8,2,?,-29,-0.6
CC(C)OC(=O)Nc1ccc2c(c1)N(C(=O)N1CCN(C)CC1)c1ccccc1CC2,-0.7,0.1,43,-0.3,2,.,0,-0.5
Cn1cc(C(=O)C(F)(F)F)c2ccccc21,0.0,-1.1,-3,.,4,-1%,0,0.3
Cc1c(SCCO)c(=O)[nH]c2cc3c(cc12)OCO3,-3.6,-4.3,0,0.8,?,19%,-12,0.6
Nn1c(Cc2ccccc2)nc2sc3c(c2c1=O)CCC3,-4.6,0.8,-6,-4.6,27,.,-1,0.5
CCO[C@H]1OC(C(=O)N2CCN(Cc3ccccc3)CC2)=C[C@@H](c2ccc(C(F)(F)F)cc2)[C@@H]1CCCO,0.0,3.6,23,-1.3,6,?,-3,0.3
Cc1cccc(N(C(=O)c2ccc(CN3CCOCC3)o2)C(C(=O)NC(C)(C)C)c2ccc(F)cc2)c1 (stereo not drawn),?,3.1,0,.,8,-2%,10,0.2
O=C(NCCc1nc(-c2ccccc2)no1)c1ccco1,-2.8,-0.2,-6,.,-6,.,-30,0.3
CCOC(=O)CSc1nc2c(c(=O)n(Cc3ccccc3Cl)c(=O)n2C)n1C,-1.6,-3.4,-1,.,.,2%,11,-0.5
O=C(N/N=C/c1c[nH]c2ccc(Br)cc12)c1ccc2c(c1)OCO2,-3.0,-0.9,.,3.1,33,.,-6,0.1
Cn1cccc1C1Nc2ccccc2NC2=C1C(=O)CC(C)(C)C2 (stereo not drawn),-2.3,10,-7,.,-8,12%,3,-0.2
O=C(O)CSc1nnc(-c2ccc(Cl)cc2)n1-c1ccccc1,1.2,4.4,-4,-4.2,32,.,-19,0.1
COCC(=O)n1nc(-c2ccccc2)nc1NCc1ccc(F)cc1,8.6,-2.1,3,.,-12,-6%,1,0.0
CCC/C(=N/NC(=O)c1nnn(-c2nonc2N)c1CN1CCCCC1)c1ccccc1,-8.2,0.4,3,-0.1,-3,6%,-3,0.2
Nc1cc(OCC(F)(F)F)cc([N+](=O)[O-])c1,-1.5,5.7,-4,.,-1,2%,-2,?
COC(=O)c1c(C(C)=O)c(C)n(C)c1C,5.3,0.4,-1,-0.6,-4,-6%,-6,0.0
COc1ccc(NC(=O)Cn2c(=O)n(CC3CCCO3)c(=O)c3cc(OC)c(OC)cc32)cc1OC (stereo not drawn),1.1,5.2,-1,-6.0,-5,.,0,-0.7
Cc1ccc2nc(C3CCN(C(=O)NCc4ccccc4)CC3)[nH]c2c1,2.7,-0.2,1,.,-6,3%,-20,-2.1
Cc1[nH]n(-c2ccccc2)c(=O)c1/C=N/N1CCOCC1,-1.8,11,3,-0.3,-6,4%,-10,-0.1
CCOc1cc(-c2nn3cnnc3s2)cc(OCC)c1OCC,2.0,0.5,0,.,5,30%,6,2.4
CCOC(=O)c1c(NC(=O)CSc2nnc(-c3ccco3)o2)sc(C(C)=O)c1C,-1.9,-0.1,-4,.,-4,-14%,-2,0.3
Cc1cc(C(=O)COC(=O)C2=COCCO2)c(C)n1-c1ccccc1,.,0.5,-4,2.4,.,3%,.,-13
C=CC[C@H](CC(=O)N[C@H](CO)Cc1ccccc1)C(=O)N[C@H](COC(=O)[C@H](CC=C)CC(=O)OC(C)(C)C)Cc1c[nH]c2ccccc12,.,-4.0,-11,-0.4,.,.,.,0.8
CC(=O)/C(=N/Nc1cccc(Cl)c1)Sc1nnc(C(O)c2ccccc2)n1-c1ccccc1 (stereo not drawn),0.2,-0.2,5,-0.9,13,.,8,1.0
CCCCn1nc(C(=O)Nc2ccc3c(c2)OCO3)c2ccccc2c1=O,.,2.3,2,2.1,.,-1%,.,0.0
Cc1ccc(S(=O)(=O)N(CC(=O)NCc2ccccc2)C(=O)N2CCN(C)CC2)cc1,3.1,.,.,0.7,-2,0%,-3,.
O=C(O)c1cccc(Nc2nc(-c3cccnc3)nc3ccccc23)c1,2.3,5.9,-2,2.0,2,-4%,-10,-0.7
S=C(NC12CC3CC(CC(C3)C1)C2)N1CCOCC1,4.0,6.2,-5,2.2,40,.,-5,0.2
O=C1C(=C2CCCCC2)SC(=S)N1Cc1ccco1,-3.1,-8.7,.,.,?,?,-15,0.3
CCCCC(OC(=O)CN1C(=O)COc2ccccc21)C(=O)NC1CCCCC1 (stereo not drawn),2.1,-1.5,-5,-4.6,-9,.,1,-0.2
Cc1ccc(-c2nc(CS(=O)CC(=O)NCCCN3CC(C)CC(C)C3)c(C)o2)cc1 (stereo not drawn),-1.7,-0.1,-5,-2.7,9,11%,-12,-0.3
CC(=O)Nc1ccccc1P(=O)(c1ccccc1)c1ccccc1OC(C)=O (stereo not drawn),3.2,-1.5,-4,.,1,?,-1,0.5
COc1ccc(NC(=O)/C=C/c2cccc(C(F)(F)F)c2)cn1,?,-0.5,-2,4.4,20,.,4,1.1
COC(=O)C1=CN(Cc2ccc(OC)cc2)C=C(C(=O)OC)C1c1ccsc1,?,2.0,0,-26,4,.,21,-0.4
O=C(O)c1ccccc1NS(=O)(=O)c1ccc(NNC(=S)Nc2ccc(OC(F)F)cc2)c([N+](=O)[O-])c1,1.9,.,.,27*,24,-2%,4,.
O=C(Nc1nccs1)c1cccnc1Cl,0.0,3.6,-3,3.3,-6,.,7,1.0
CCN(CC)CCOc1cc2c(nn1)Oc1ccccc1N2C,-1.7,-1.2,-5,.,2,0%,2,-0.9
CCOc1cc(-c2nnc(-c3ccco3)o2)cc(OCC)c1OCC,2.4,6.1,10,.,14,21%,4,-0.4
CCNC(=O)N(C)C[C@H]1N[C@@](CC)(C(=O)OC)[C@H]2C(=O)N(Cc3ccccc3)C(=O)[C@@H]12,.,7.9,-7,0.3,.,7%,.,0.4
COc1cc(/C=C2\SC(=S)N(CC(=O)Nc3ccccn3)C2=O)cc(OC)c1OC,-10,-2.7,7,-5.0,-25,18%,-8,0.7
Cc1ccc(CN2C(=O)c3ccccc3NC23CCN(Cc2ccccc2)CC3)cc1,.,-3.6,23,15,1,-3%,32,-0.1
COc1ccc(NC(=O)CN2C(=O)CC(C)S(=O)(=O)c3ccccc32)cc1 (stereo not drawn),18*,-0.9,-3,-1.2,-16,.,0,0.2
Cc1ccc(-c2cc(-c3ccccc3Cl)c(C#N)c(N)n2)o1,11,-5.7,-1,.,13,?,30,1.3
CC(C)(C)OC(=O)NCCCCC1=CC2=CC(=O)C(C)(OC(=O)c3cnc4ccccc4n3)C(=O)C2=CO1 (stereo not drawn),-28,5.8,-2,.,-4,.,-23,-0.6
CCC(Oc1ccc(C)cc1)C(=O)Nc1ccc2c(c1)n(C)c(=O)n2C (stereo not drawn),?,-2.2,-11,-2.2,19,.,-14,0.0
CC1Cc2ccccc2N1C(=O)CSc1nc2c(c(=O)n(C)c(=O)n2C)n1Cc1ccc(F)cc1 (stereo not drawn),2.0,1.9,17,.,-4,7%,11,-0.1
Cc1ccc(C2CC(=O)C=C(NCC(C)C)C2)cc1 (stereo not drawn),1.4,-2.2,0,2.0,-23,4%,6,-0.3
CC(=O)CC(=O)Nc1ccc(Nc2ccccc2)cc1,-3.2,-1.1,0,.,1,8%,-8,0.6
COc1ccc(CCNC(=O)COC(=O)/C=C/c2ccc(OCC#N)c(OC)c2)cc1OC,-2.5,-0.8,3,0.0,40,5%,-7,1.1
CSc1ncccc1C(=O)OCC(=O)c1ccccc1Br,1.7,-4.8,-2,-2.1,29,6%,-18,-2.0
COc1ccc(/C=N/N2C(=O)CSC2=S)cc1,?,0.8,6,.,-18,18%,-6,0.2

# (list continues)
SMILES,RanGTP-Imp inh,LANA-H2A inh,Beta apoptosis,AF4-AF9 inh,Calb FLC,Vif TR-FRET,T cruzi repl,A1 inh
CN1C(=O)CCC1(O)c1ccccc1 (stereo not drawn),-3.0,-1.2,-20,.,-13,12%,-2,0.7
CC(C)c1cc(NC(=O)C(C)(C)C)cc(C(C)C)c1O,1.4,1.2,1,.,7,14%,-9,-0.1
COc1ccc(OC)c(-n2nnnc2SCC(=O)Nc2ccc3c(c2)OCCO3)c1,3.3,1.3,1,.,1,-10%,-6,0.7
Cc1cccc(C(=O)OCC(=O)NCCCc2ccccc2)c1O,-2.4,2.2,1,-6.7,-2,-1%,10,0.7
CNC(=S)NNC(=O)c1cccc(C(F)(F)F)c1,1.2,3.4,-5,3.1,2,29%,-9,0.0
CCOC(=O)c1sc2nc(C)nc(SCC(=O)N(CC)C3CCS(=O)(=O)C3)c2c1C (stereo not drawn),3.4,-7.1,4,-3.5,6,-50%,2,0.0
CCOCCCN1C(=O)CN(C2CCC(C)CC2)C(=O)C1c1ccc(C)cc1 (stereo not drawn),5.3,5.2,4,-2.4,-8,1%,-6,0.5
O=C1C2C3C=CC(C3)C2C(=O)N1CCC(=O)N1CCc2ccccc21 (stereo not drawn),?,3.6,-17,.,10,0%,-5,1.7
CCOC(=O)Cc1csc(NS(=O)(=O)Cc2ccccc2)n1,-1.8,4.0,0,.,2,5%,8,-0.1
CC(=O)c1cccc(S(=O)(=O)Nc2cccnc2)c1,-0.3,1.5,-4,1.1,-5,10%,0,0.6
CC(=O)c1oc2ccccc2c1NC(=O)CCCN1C(=O)c2ccccc2C1=O,5.1,-1.6,-1,1.2,0,-7%,-10,0.6
